# Vaccinia inh – blocks a specific stage of Vaccinia orthopoxvirus infection, primary screen, cell-based, single point; Vaccinia-infected cells, mCherry/Venus stage reporter fluorescence; stronger effect = lower value; some inactives read as strong as hits; activity change (mCherry), % (no concentration beside the values); 89,000 tested, 0.01% active; AID 1053133, 2014;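 active means mCherry past -33% and 40 or more points under the early reporter, replicates agreeing; inconclusive means past -33% without that gap or agreement; tested in A549 cells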;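 further: scaled between vehicle wells and reference inhibitor wells; 23 nL library stock went into each well; one replicate is shown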
# Vaccinia inh Venus – also measured in Vaccinia inh; calls as there; activity change (Venus), %; measured here: Venus reporter, other viral stage;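 negative = less Venus signal; first of two replicates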
# The depositor's hits bear a star; ? = inconclusive; . = no result given.
# Each structure is followed by: Vaccinia inh Venus | Vaccinia inh
> C[C@@H]1CCCCO[C@H](CN(C)Cc2ccc(C(=O)O)cc2)[C@@H](C)CN([C@@H](C)CO)C(=O)c2cc(NC(=O)NC3CCCCC3)ccc2O1
  3 | 11
> Cc1ccc(S(=O)(=O)NCC[C@@H]2CC[C@@H](NC(=O)C3CCOCC3)[C@@H](CO)O2)cc1
  -6 | 8
> C[C@H]1CN([C@@H](C)CO)C(=O)Cc2cc(NC(=O)Nc3ccc(C(F)(F)F)cc3)ccc2O[C@H]1CN(C)S(=O)(=O)c1ccccc1
  . | ?
> C[C@H]1CN([C@@H](C)CO)C(=O)c2cc(C#CCN(C)C)cnc2O[C@@H]1CN(C)Cc1ccc(F)cc1
  9 | 15
> C[C@@H]1CCCCO[C@@H](CN(C)S(=O)(=O)c2cn(C)cn2)[C@H](C)CN([C@@H](C)CO)C(=O)c2cc(NC(=O)Nc3ccc4c(c3)OCO4)ccc2O1
  10 | 20
> O=C(C[C@@H]1CC[C@@H]2[C@H](COC[C@H](O)CN2C(=O)Nc2ccccc2)O1)NCc1ccncn1
  17 | 1
> COc1cccc(NC(=O)N(C)C[C@@H]2Oc3ncc(C#Cc4ccccc4)cc3C(=O)N([C@H](C)CO)C[C@H]2C)c1
  -31 | -34
> O=C(Nc1ccccc1)N[C@H]1CC[C@@H](CCNC(=O)c2ccccc2F)O[C@H]1CO
  -10 | -3
> C[C@H](CO)N1C[C@H](C)[C@@H](CN(C)S(=O)(=O)c2ccc(Cl)cc2)Oc2c(NC(=O)Nc3cccc4ccccc34)cccc2C1=O
  -1 | -1
> COc1ccccc1C(=O)N1C[C@H]2[C@@H](c3ccccc31)[C@H](CO)N2Cc1ccc(F)cc1
  4 | 5
> C[C@@H]1CN([C@@H](C)CO)C(=O)Cc2cc(NC(=O)Cn3cnnn3)ccc2O[C@@H]1CN(C)S(=O)(=O)c1ccc(F)cc1
  5 | 12
> CC=Cc1ccc2n(c1=O)C[C@@H]1[C@@H](CO)[C@H](C(=O)NCCC)[C@H]2N1CC1CCCC1 (mixture of isomers)
  11 | 4
> COc1ccc(NC(=O)Nc2ccc3c(c2)[C@H]2C[C@@H](CC(=O)O)O[C@@H](CO)[C@H]2O3)cc1
  12 | 1
> CC(=O)N1CCCCN2[C@H](CO)[C@H](c3ccc(Br)cc3)[C@@H]2C1
  1 | 5
> C[C@@H]1CN([C@H](C)CO)C(=O)c2cc(N(C)C)ccc2O[C@@H]1CN(C)Cc1ccc(C(F)(F)F)cc1
  -7 | -2
> O=C(C[C@@H]1C[C@@H]2c3cc(NC(=O)C4CCOCC4)ccc3O[C@@H]2[C@@H](CO)O1)NC1CCCC1
  12 | 15
> COCCCN1C(=O)[C@@]2(Cc3ccccc31)c1ccccc1C(=O)N(Cc1ccccc1)[C@H]2c1ccc(CO)cc1
  6 | 14
> CCNC(=O)[C@@H]1[C@@H](CO)[C@@H]2Cn3c(cccc3=O)[C@H]1N2CC1CCOCC1
  10 | 12
> C[C@@H]1CN([C@H](C)CO)C(=O)c2cc(NC(=O)CCN3CCOCC3)ccc2O[C@@H]1CN(C)CC1CC1
  -2 | -5
> O=C(Nc1ccccc1)[C@H]1[C@H](CO)[C@H]2Cn3c(ccc(C4=CCCCC4)c3=O)[C@H]2N1Cc1ccccn1
  -2 | -7

# Continued (seven carried over from the part before).
# Each structure is followed by: Vaccinia inh Venus | Vaccinia inh
> CC(=O)N1CCCCN2[C@H](CO)[C@H](c3ccc(Br)cc3)[C@@H]2C1
  1 | 5
> C[C@@H]1CN([C@H](C)CO)C(=O)c2cc(N(C)C)ccc2O[C@@H]1CN(C)Cc1ccc(C(F)(F)F)cc1
  -7 | -2
> O=C(C[C@@H]1C[C@@H]2c3cc(NC(=O)C4CCOCC4)ccc3O[C@@H]2[C@@H](CO)O1)NC1CCCC1
  12 | 15
> COCCCN1C(=O)[C@@]2(Cc3ccccc31)c1ccccc1C(=O)N(Cc1ccccc1)[C@H]2c1ccc(CO)cc1
  6 | 14
> CCNC(=O)[C@@H]1[C@@H](CO)[C@@H]2Cn3c(cccc3=O)[C@H]1N2CC1CCOCC1
  10 | 12
> C[C@@H]1CN([C@H](C)CO)C(=O)c2cc(NC(=O)CCN3CCOCC3)ccc2O[C@@H]1CN(C)CC1CC1
  -2 | -5
> O=C(Nc1ccccc1)[C@H]1[C@H](CO)[C@H]2Cn3c(ccc(C4=CCCCC4)c3=O)[C@H]2N1Cc1ccccn1
  -2 | -7
> COc1ccc(S(=O)(=O)Nc2ccc3c(c2)C(=O)N([C@H](C)CO)C[C@@H](C)[C@H](CN(C)C(=O)Nc2ccc4c(c2)OCO4)OCCCC[C@H](C)O3)cc1
  -17 | -11
> C[C@@H]1CN([C@H](C)CO)C(=O)c2cccc(NC(=O)c3nc4ccccc4s3)c2O[C@H]1CN(C)C(=O)NC1CCCCC1
  9 | 19
> C[C@@H]1CN([C@@H](C)CO)C(=O)Cc2cc(NS(=O)(=O)c3ccccc3)ccc2O[C@H]1CN(C)S(=O)(=O)c1cccs1
  -3 | 10
> O=C(c1cnccn1)N1CC(=O)N2[C@@H](CO)[C@H](c3ccc(-c4ccc(F)cc4)cc3)[C@@H]2C1
  1 | 2
> O=C(N[C@@H]1CC[C@H](CCNS(=O)(=O)c2ccc(F)cc2)O[C@@H]1CO)C1CCOCC1
  3 | 0
> C[C@@H]1CN([C@@H](C)CO)S(=O)(=O)c2ccc(-c3ccccc3)cc2O[C@@H]1CN(C)Cc1cccc(F)c1
  . | ?
> O=C(N[C@H]1C=C[C@H](CC(=O)N2CCc3ccccc3C2)O[C@H]1CO)C1CCOCC1
  7 | 7
> OC[C@@H]1[C@@H](c2ccccc2)C2(CN(Cc3ccccn3)C2)N1Cc1cncnc1
  12 | 12
> C[C@H](CO)N1C[C@H](C)[C@H](CN(C)S(=O)(=O)c2cn(C)cn2)Oc2c(NC(=O)Nc3ccc4c(c3)OCO4)cccc2C1=O
  7 | 14
> O=C(CN1CCOCC1)NCC[C@H]1CC[C@@H](NC(=O)Nc2ccc(F)cc2)[C@H](CO)O1
  2 | -6
> C[C@H](CO)N1C[C@H](C)[C@@H](CN(C)Cc2ccccc2)OCCCC[C@H](C)Oc2ccc(NC(=O)C3CCCCC3)cc2C1=O
  -30 | -30
> COCC#Cc1cnc2c(c1)C(=O)N([C@H](C)CO)C[C@H](C)[C@H](CN(C)S(=O)(=O)c1cn(C)cn1)O2
  3 | 7
> COc1ccc2c3c(n(C)c2c1)[C@H](CO)N(C(=O)Nc1ccccc1F)CC31CCN(C(C)=O)CC1
  -6 | -14
> CCC(=O)N1[C@@H](CO)[C@H](c2ccccc2)C12CN(C(=O)c1ccc3c(c1)OCO3)C2
  6 | 15
> C[C@H](CO)N1C[C@H](C)[C@H](CN(C)C(=O)C2CCCCC2)OCCCC[C@H](C)Oc2ccc(NS(C)(=O)=O)cc2C1=O
  -4 | 2
> O=C(O)C[C@H]1C[C@@H]2c3cc(NC(=O)Nc4ccccc4F)ccc3O[C@@H]2[C@@H](CO)O1
  9 | 12
> Cc1noc(C)c1S(=O)(=O)N(C)C[C@@H]1OCCCC[C@@H](C)Oc2ccc(N(C)C)cc2C(=O)N([C@@H](C)CO)C[C@H]1C
  -21 | -34
> C[C@@H]1CN([C@H](C)CO)C(=O)Cc2cc(NC(=O)Cc3cn(C)c4ccccc34)ccc2O[C@H]1CN(C)Cc1ccc(-c2ccccc2)cc1
  -7 | -11
> C[C@H](CO)N1C[C@H](C)[C@@H](CN(C)Cc2ccc(Cl)c(Cl)c2)Oc2c(NC(=O)Nc3ccc(F)cc3)cccc2C1=O
  -6 | -9
> C[C@H](CO)N1C[C@H](C)[C@@H](CN(C)Cc2cccc(F)c2)Oc2cc(-c3ccccc3)ccc2S1(=O)=O
  -6 | -10
> COc1cccc(S(=O)(=O)N(C)C[C@H]2OCc3ccccc3-c3ccccc3C(=O)N([C@@H](C)CO)C[C@@H]2C)c1
  -4 | -3
> C[C@H]1CCCCO[C@@H](CN(C)C(=O)c2ccccc2)[C@@H](C)CN([C@@H](C)CO)C(=O)c2cc(NC(=O)c3ccncc3)ccc2O1
  1 | -4
> O=C(c1cccnc1)N1C[C@H]2[C@@H](c3ccccc31)[C@H](CO)N2C(=O)Nc1ccccc1Cl
  -4 | -2
> O=C(C[C@H]1C[C@@H]2c3cc(NC(=O)NC4CCCC4)ccc3O[C@@H]2[C@@H](CO)O1)NC1CCCC1
  3 | 6
> C[C@H]1CCCCO[C@H](CN(C)Cc2ccc(C(F)(F)F)cc2)[C@@H](C)CN([C@@H](C)CO)C(=O)c2cc(NC(=O)NC3CCCCC3)ccc2O1
  . | ?
> O=C(C[C@@H]1C[C@H]2c3cc(NC(=O)C4CCC4)ccc3O[C@H]2[C@H](CO)O1)NCc1ccc(Cl)cc1
  -1 | 0
> CN1C[C@@H](O)COC[C@@H]2O[C@H](CC(=O)NC3CCCC3)CC[C@H]21
  9 | 7
> C[C@@H]1CN([C@@H](C)CO)C(=O)c2cc(C#Cc3cccc(F)c3)cnc2O[C@@H]1CN(C)Cc1ccccn1
  3 | 0
> CCCC#Cc1cnc2c(c1)C(=O)N([C@@H](C)CO)C[C@@H](C)[C@H](CN(C)C(=O)CN1CCOCC1)O2
  5 | 18
> CN(C)CC#Cc1ccc([C@@H]2[C@H](CO)N3C(=O)CN(C(=O)c4ccc(F)cc4)C[C@@H]23)cc1
  -10 | 14
> COc1ccc2c3c([nH]c2c1)[C@@H](CO)N(C(=O)C1CC1)CC31CCN(Cc2nccs2)CC1
  3 | 0
> COc1ccc(-c2ccc([C@@H]3[C@@H](CO)N4C(=O)CN(Cc5ccccc5)C[C@H]34)cc2)cc1
  4 | 0
> C[C@@H]1CN([C@@H](C)CO)S(=O)(=O)c2ccc(C3=CCCC3)cc2O[C@H]1CN(C)C(=O)C1CCCCC1
  -15 | -28
> COc1ccc(CN(C)C[C@H]2Oc3ccc(NC(=O)Nc4c(C)noc4C)cc3CC(=O)N([C@H](C)CO)C[C@@H]2C)cc1
  12 | 2
> C[C@H]1CN([C@@H](C)CO)C(=O)c2ccccc2-c2ccccc2CO[C@H]1CN(C)Cc1cccc(F)c1
  . | ?
> C[C@@H]1CN([C@H](C)CO)C(=O)c2cc(-c3cncnc3)cnc2O[C@H]1CN(C)C(=O)Cc1ccccn1
  3 | 8
> CCCC(=O)Nc1ccc2c(c1)OC[C@H](C)N(C(=O)C1CCCC1)C[C@@H](C)[C@@H](OC)CN(C)C2=O
  6 | -6
> N#C[C@@H]1[C@@H](c2ccccc2-c2ccccc2F)[C@H](CO)N1C(=O)C1CCC1
  1 | -4
> CC(C)C#Cc1cnc2c(c1)C(=O)N([C@H](C)CO)C[C@@H](C)[C@H](CN(C)C(=O)Nc1ccc(F)cc1)O2
  0 | -2
> O=C(C[C@@H]1CC[C@H]2[C@@H](COC[C@H](O)CN2C(=O)c2ccccn2)O1)N1CCN(c2ccccc2)CC1
  16 | 6
> O=C(Nc1ccccc1)N1CCCCN2[C@H](CO)[C@@H](c3ccc(-c4ccncc4)cc3)[C@@H]2C1
  9 | -1
> C[C@H]1CN([C@@H](C)CO)C(=O)c2cccc(NS(=O)(=O)c3cn(C)cn3)c2O[C@@H]1CN(C)C
  4 | 11
> O=C(C[C@@H]1CC[C@@H]2[C@H](COC[C@@H](O)CN2Cc2ccc(F)cc2)O1)NCc1ccccc1Cl
  -18 | -21
> COc1ccc(CNC(=O)C[C@H]2CC[C@H](NC(=O)c3cccc(F)c3)[C@@H](CO)O2)cc1
  17 | 14
> COc1ccc(NC(=O)Nc2ccc3c(c2)CC(=O)N([C@H](C)CO)C[C@@H](C)[C@H](CN(C)C(=O)Nc2ccc(F)cc2)O3)cc1
  7 | 0
> C[C@@H]1CN([C@@H](C)CO)C(=O)c2cc(NC(=O)CCN3CCOCC3)ccc2O[C@@H]1CN(C)Cc1ccc2c(c1)OCO2
  3 | -2
> CC(C)CC#Cc1ccc2c(c1)O[C@H](CN(C)C(=O)C1CCC1)[C@H](C)CN([C@H](C)CO)S2(=O)=O
  . | ?
> O=C(C[C@@H]1CC[C@@H]2[C@H](COC[C@@H](O)CN2C(=O)Cc2ccccc2)O1)NC1CCC1
  -7 | -1
> C[C@H]1CN([C@@H](C)CO)S(=O)(=O)c2ccc(C3=CCCC3)cc2O[C@H]1CN(C)C(=O)c1ccncc1
  19 | 35
> CO[C@@H]1CN(C)C(=O)c2cc(NC(=O)Cc3ccccc3)ccc2OC[C@H](C)N(C(=O)c2ccccc2F)C[C@@H]1C
  -5 | 0

# (next part)
# Each structure is followed by: Vaccinia inh Venus | Vaccinia inh
> CN(C)CC#Cc1ccc([C@H]2[C@H]3CN(C(=O)c4ccc5c(c4)OCO5)CCCCN3[C@H]2CO)cc1
  3 | 13
> COc1ccc(NC(=O)N(C)C[C@@H]2OCCCC[C@H](C)Oc3ccc(NC(=O)Cc4ccccc4)cc3C(=O)N([C@@H](C)CO)C[C@@H]2C)cc1
  . | ?
> COc1cccc(NC(=O)Nc2ccc3c(c2)C(=O)N(C)C[C@H](OC)[C@H](C)CN(C)[C@@H](C)CO3)c1
  -3 | -12
> C[C@@H]1CN([C@H](C)CO)S(=O)(=O)c2ccc(C#CC(C)(C)O)cc2O[C@H]1CN(C)Cc1ccccc1
  -23 | -32
> CN1c2ccc(-c3ccccc3F)cc2[C@H]2[C@H](CCN2C(=O)Cc2ccccn2)[C@H]1CO
  -19 | -31
> CCNC(=O)C[C@@H]1CC[C@@H](NC(=O)C2CCOCC2)[C@H](CO)O1
  -12 | -4
> C[C@@H]1CCCCO[C@H](CN(C)S(=O)(=O)c2ccc(F)cc2)[C@@H](C)CN([C@H](C)CO)C(=O)c2cc(NS(C)(=O)=O)ccc2O1
  5 | 12
> C[C@@H]1CN([C@H](C)CO)C(=O)c2cccc(NC(=O)c3ccncc3)c2O[C@@H]1CN(C)Cc1ccc(C(=O)O)cc1
  4 | 3
> CCCNC(=O)Nc1ccc2c(c1)C(=O)N(C)[C@H]1CC[C@H](CC(=O)NCc3ccccc3)O[C@@H]1CO2
  6 | 7
> CCCC(=O)Nc1ccc2c(c1)OC[C@@H](C)N(C(=O)CC)C[C@H](C)[C@@H](OC)CN(C)C2=O
  0 | -11

# Not all compounds are listed. The share of hits here may be higher or lower than overall.
